GLA inh pH 4.5 = alpha-galactosidase A (human) inhibition, pH 4.5; P06280; purified enzyme, 4-MU-alpha-Gal fluorescence, pH 4.5; activity change, negative = inhibition, % at 105 µM; 230,000 tested, under 10 active; AID 1467; inconclusive = small, poorly fitted or top-dose-only inhibition, or a rising curve; inactive = flat fitted curve, though single readings scatter; no compound was filed as active;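 note: 0% = full activity with enzyme and -100% = basal without enzyme; dose as in the result columns while the protocol names 77 µM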
Rango release inh = inhibitors of RanGTP-induced Rango-importin beta complex dissociation. Potency, µM (highest dose often 46.1 µM), for the others: at the highest dose activity change, negative = inhibition. Biochemical FRET Rango-importin beta, RanGTP-induced dissociation. O95149+P62826. AID 540253. 340,000 compounds, 0.071% hits; active means falling FRET ratio curve, often poorly fitted, with flat reads before Ran was added; inconclusive means other falling curves, or compound fluorescence or quenching; inactive means flat or rising ratio curve;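 note: potency is the fitted concentration of half-maximal effect; % of control where 0% means no effect; nearly all actives have a fitted effect of over 45% in size; -100% = wells without RanGTP and RCC1; the record marks most hits as doubtful in a second field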
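FRET read at 45 min, room temperature: inhibitors block the CFP/YFP signal rise when RanGTP (0.6 uM Ran, 2 mM GTP, 0.2 uM RCC1) frees Rango (0.1 uM) from importin beta (0.25 uM). Pre-read after 5 min compound exposure flags interference.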
Rango complex inh = prevents formation of the Rango-importin beta complex | Rango CFP/YFP FRET sensor + importin beta, 45 min | Q14974 | 340,000 compounds, 0.031% hits | AID 540263 | Potency, µM (titrated, usually from 92.2 µM), without a hit: top-dose inhibition of complex formation; active = rising FRET ratio curve, often small or poorly fitted; inconclusive = mostly compound fluorescence or quenching in the first reads; inactive = flat curves in all reads;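 note: potency is the fitted concentration of half-maximal effect; 0% = DMSO wells and 100% = buffer wells lacking importin beta; nearly all actives have a fitted effect of over 15% in size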
Target sequence (Q14974 whole entry, looked up): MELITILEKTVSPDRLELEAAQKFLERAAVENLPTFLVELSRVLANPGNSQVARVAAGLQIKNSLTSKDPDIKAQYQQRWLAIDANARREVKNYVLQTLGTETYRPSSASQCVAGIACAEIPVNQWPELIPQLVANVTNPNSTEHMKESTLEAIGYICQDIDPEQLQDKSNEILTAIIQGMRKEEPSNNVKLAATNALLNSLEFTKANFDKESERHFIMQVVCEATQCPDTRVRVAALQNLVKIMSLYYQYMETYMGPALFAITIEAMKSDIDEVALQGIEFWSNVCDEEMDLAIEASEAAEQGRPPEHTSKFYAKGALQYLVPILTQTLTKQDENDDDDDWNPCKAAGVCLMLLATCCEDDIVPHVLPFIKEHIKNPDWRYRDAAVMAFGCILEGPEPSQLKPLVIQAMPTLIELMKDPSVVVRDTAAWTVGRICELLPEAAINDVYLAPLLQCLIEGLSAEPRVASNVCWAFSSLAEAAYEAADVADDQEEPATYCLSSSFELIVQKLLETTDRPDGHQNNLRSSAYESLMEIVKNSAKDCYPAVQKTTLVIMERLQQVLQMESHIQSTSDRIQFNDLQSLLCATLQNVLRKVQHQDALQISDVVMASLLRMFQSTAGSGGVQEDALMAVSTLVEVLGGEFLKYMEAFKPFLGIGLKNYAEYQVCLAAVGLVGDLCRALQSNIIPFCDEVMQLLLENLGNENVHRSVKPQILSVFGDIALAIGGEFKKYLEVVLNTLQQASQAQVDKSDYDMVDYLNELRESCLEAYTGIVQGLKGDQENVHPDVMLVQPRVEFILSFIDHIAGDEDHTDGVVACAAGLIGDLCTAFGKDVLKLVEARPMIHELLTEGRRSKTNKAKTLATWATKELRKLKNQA
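FRET biosensor Rango (snurportin 1 IBB between N-terminal EYFP and C-terminal Cerulean), 50 nM in PBS/1 mM DTT/0.02% Tween-20/0.1% BSA, preincubated 5 min RT with compound; 0.125 microM importin beta added, 45 min RT, CFP/YFP FRET ratio read.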
miR-21 reporter = raises the signal of a miR-21 reporter; HeLa miR-21 FLuc reporter, luciferase, 48 h; Potency, µM (titrated, usually from 38.3 µM), without a hit: at the top dose reporter change, positive = more light; 340,000 tested, under 10 active; AID 2288; active = well fitted rising curve with a large enough effect; inconclusive = small, poorly fitted or top-dose-only effect; inactive = no such curve, though single readings can be large or run the other way;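 note: % of control where 0% means no effect; miR-21 action dims this reporter so a rising signal means less miR-21 action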
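Compounds were titrated across several concentrations (up to approximately 40 uM) and incubated 48 hours with HeLa miR-21-FLuc reporter cells (miR-21 target sequence downstream of FLuc, endogenous miR-21). Readout was firefly luciferase luminescence after lytic detection reagent.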
The depositor's hits bear a star; ? = inconclusive; . = no result given; & = joins results of further samples.

SMILES	GLA inh pH 4.5	Rango release inh	Rango complex inh	miR-21 reporter
CCOC(=O)c1ccc(N2C(=O)C(CC(N)=O)N(CCc3ccc(OC)c(OC)c3)C2=S)cc1 (stereo not drawn)	-3	-20%	?	29%
CC1=CC(C)(C)n2c(O)c(N=N)c3cc(C)cc1c32	-6	-8%	-3.0%	-5%
O=C1NC(=S)S/C1=C\c1ccc(SCc2ccccc2)o1	-13	-19%	?	5%
CN(CC(=O)Nc1ccccc1Cl)C(=O)COC(=O)/C=C/c1ccc(C(F)(F)F)cc1	.	-5%	-1.6%	0%
CC(=O)N1c2ccc(S(=O)(=O)N3CCC(C(=O)N4CCCCC4)CC3)cc2CC1C (stereo not drawn)	.	-6%	-2.9%	8%
CCCCn1nnnc1SCC(=O)Nc1sc2c(c1C#N)CCCC2	1	2%	8.3%	-5%
Brc1ccc(-c2nnc3sc(CN4CCN(c5ccccc5)CC4)cn23)cc1	-2	0%	-3.1%	-4%
CSCCC(Nc1ncnc2ccc(Br)cc12)C(=O)O (stereo not drawn)	8	6%	-1.7%	1%
COc1ccc(C2c3cc(OC)c(OC)cc3CCN2C(=O)c2cccc([N+](=O)[O-])c2)cc1OC (stereo not drawn)	.	-2%	-0.7%	-10%
C/C=C/C(=O)Nc1cccc(C(F)(F)F)c1	4	-2%	-1.4%	-8%
COc1ccccc1NC(=O)C(C)OC(=O)C1CCN(S(=O)(=O)c2ccc(C)c(C)c2)CC1 (stereo not drawn)	.	-14%	-0.8%	.
C=CCNC(=O)C1CC(=O)N(c2ccc(OCC(=O)Nc3c(C)cccc3C)cc2)C1 (stereo not drawn)	.	4%	1.6%	1%

Four compounds already listed, arranged by SMILES length, smallest number first.
SMILES	GLA inh pH 4.5	Rango release inh	Rango complex inh	miR-21 reporter
C/C=C/C(=O)Nc1cccc(C(F)(F)F)c1	4	-2%	-1.4%	-8%
CC1=CC(C)(C)n2c(O)c(N=N)c3cc(C)cc1c32	-6	-8%	-3.0%	-5%
CC(=O)N1c2ccc(S(=O)(=O)N3CCC(C(=O)N4CCCCC4)CC3)cc2CC1C (stereo not drawn)	.	-6%	-2.9%	8%
COc1ccccc1NC(=O)C(C)OC(=O)C1CCN(S(=O)(=O)c2ccc(C)c(C)c2)CC1 (stereo not drawn)	.	-14%	-0.8%	.

New compounds follow
SMILES	GLA inh pH 4.5	Rango release inh	Rango complex inh	miR-21 reporter
O=C(O)c1cnccn1	.	4%	0.4%	-14%
Cn1cc(C(=O)c2ccc(Cl)cc2Cl)cc1C(=O)N/N=C(\N)COc1ccc(Cl)cc1	-3	15%	-3.4%	?
CCc1noc(C)c1C(=O)Nc1nc(-c2cc(C)ccc2C)c(C)s1	0	?	0.3%	-10%
Cc1c(O)ccoc1=O	-3	-5%	1.2%	1%
Cc1nc(SCC(=O)N(C)C2CCS(=O)(=O)C2)c2ccccc2n1 (stereo not drawn)	.	-1%	?	.
COc1ccccc1NOC(=O)CCOc1ccccc1	.	-17%	3.1%	.
CN1C=CC=C/C1=C1\SC(=S)N(N)C1=O	-14	52%	0.0%	-1%
O=C(Cn1cnc2c(OCc3ccccc3)ncnc21)NCCCN1CCCC1=O	.	2%	1.8%	.
CCOC(=O)c1ccc(NC(=O)CSc2ncccn2)cc1	4	8%	-4.3%	-11%
Cc1onc(-c2ccccc2Cl)c1C(=O)Nc1ncn[nH]1	-3	25%	7.4%	-3%
Cc1noc(C)c1COC(=O)C1CCN(C(=O)c2ccc(Cl)cc2)CC1	1	-3%	-1.1%	-4%
O=C(Cc1cccc(NC(=O)C2CCCN(C(=O)C3CCC3)C2)c1)Nc1ccc(C(=O)N2CCOCC2)cc1 (stereo not drawn)	.	18%	-2.3%	.
CCN(CC(=O)Nc1ccc(NC(C)=O)cc1)C(=O)CCCSc1nc2ccccc2[nH]1	.	7%	3.0%	.
COc1ccc2c(Cl)c(C(N)=O)sc2c1	-2	2%	-0.3%	-18%
COCCNC(=O)C(c1ccco1)N(C(=O)Cn1nnc2ccccc21)c1cccc(C)c1C (stereo not drawn)	-6	1%	-0.5%	-5%
CC(=O)Nc1ccc(/C=C/c2nc(-c3ccccc3O)n[nH]2)cc1	.	-9%	-1.5%	-52%
C[C@H](CO)N1C[C@H](C)[C@@H](CN(C)C(=O)Nc2ccc(C(F)(F)F)cc2)Oc2ccc(NC(=O)c3ccncc3)cc2C1=O	.	19%	0.0%	.
O=C(C[n+]1ccc(C(=O)c2ccccc2)cc1)Nc1ccccc1OC(F)F	.	2%	0.0%	.
CCCCOC(=O)c1ccc(NC(=O)CSC2=Nc3ccccc3C3CC=NN23)cc1 (stereo not drawn)	2	-10%	0.5%	-9%
Cc1cnc(C(=O)OCC(=O)c2ccc[nH]2)cn1	.	0%	1.3%	.
Fc1ccc(Nc2c(-c3ccco3)nc3ccccn23)cc1	-7	9%	-2.2%	-16%&-18%
CC(C)(C)c1ccc(C(=O)N2CCN(Cc3ccccc3)CC2)cc1	.	4%	0.1%	-1%
Cc1noc(C)c1COC(=O)c1cccnc1Cl	-9	-3%	-1.8%	-4%
CCOC(=O)c1cccc(NC(=O)c2cnccn2)c1	5	16%	-2.4%	-16%

An excerpt from above in order of the Rango complex inh value, lowest first.
SMILES	GLA inh pH 4.5	Rango release inh	Rango complex inh	miR-21 reporter
Cc1noc(C)c1COC(=O)C1CCN(C(=O)c2ccc(Cl)cc2)CC1	1	-3%	-1.1%	-4%
C=CCNC(=O)C1CC(=O)N(c2ccc(OCC(=O)Nc3c(C)cccc3C)cc2)C1 (stereo not drawn)	.	4%	1.6%	1%
CCCCn1nnnc1SCC(=O)Nc1sc2c(c1C#N)CCCC2	1	2%	8.3%	-5%

Carrying on:
SMILES	GLA inh pH 4.5	Rango release inh	Rango complex inh	miR-21 reporter
O=C(COc1ccccc1)NCCSc1ccccc1	-7	11%	-0.5%	-55%
COc1ccc(C2NCCc3sccc32)cc1 (stereo not drawn)	1	-1%	-2.1%	-4%
Cc1oc(C(=O)O)cc1COc1ccc2c3c(c(=O)oc2c1)CCC3	-2	4%	?	0%
O=C(C1COc2ccccc2O1)N1CCN(c2ccccn2)CC1 (stereo not drawn)	.	10%	0.3%	.
CC1CCCCN1CCCNC(=O)C1CCN(c2nnc(-n3cccc3)s2)CC1 (stereo not drawn)	.	-13%	-2.4%	-6%
Nc1nnc2c(C(F)(F)F)nc3ccccc3n12	.	-15%	?	-5%
O=S(=O)(Nc1ccc2c(c1)OCCO2)c1ccc(F)cc1	-2	-5%	2.5%	3%
CCOc1ccc(Br)cc1S(=O)(=O)Nc1nc(CN2CCOCC2)nc2sc(C)c(C)c12	-3	?	?	-6%
COc1ccccc1NC(=O)CCNS(=O)(=O)c1ccc2c(c1)CC(C)N2C(=O)C1CC1 (stereo not drawn)	.	2%	-3.2%	1%
CCSc1nc2sc3c(c2c(=O)n1CC)CC(C)(C)OC3	-12	-1%	0.8%	2%
CCO[C@@H]1OC(C(=O)N2CCN(Cc3ccc4c(c3)OCO4)CC2)=C[C@H](C)[C@H]1CCCO	2	2%	-0.3%	0%
O=C(COc1ccccc1-c1ccccc1)NCc1cccc(Cl)c1	1	12%	-1.0%	1%
Cc1onc(-c2ccccc2)c1C(=O)Nc1ccccc1N1CCOCC1	-2	5%	-0.8%	-3%
Cc1cccc(OCC(=O)Nc2ccc(C(=O)c3ccc(C(=O)O)cc3)cc2)c1	4	32%	2.8%	-25%
Cc1cnc(CN(C)C(=O)c2ccc3oc(Cc4ccc(Cl)cc4)nc3c2)[nH]1	.	9%	-0.4%	7%
CCN(CC)C(=O)CSc1nnc2nnc3cc(OC)ccc3n12	-4	?	?	5%
CC(C)[C@H](NC(=O)c1ccccc1)C(=O)O	8	-20%	-5.5%	0%
CCOC(=O)C1=C(CN2CCN(C(=O)c3ccco3)CC2)NC(=O)NC1c1ccccc1 (stereo not drawn)	.	9%	0.3%	-1%
CCC(=O)c1ccc(OCC(=O)OCC(=O)c2c(N)n(C)c(=O)n(C)c2=O)cc1	.	15%	-3.8%	.
CCOC(=O)C1CCCN(C(=O)/C=C/c2ccc(OC)cc2)C1 (stereo not drawn)	1	4%	-3.5%	-15%
COc1cc(OC)c2ccc(=O)oc2c1C(CCN1CCCC(C)C1)c1ccc(N(C)C)cc1 (stereo not drawn)	-8	0%	-2.6%	-1%
CCC(C(=O)NCCc1ccccc1)c1ccccc1 (stereo not drawn)	.	-8%	-3.8%	-5%
COc1ccc(NC(=O)COc2coc(CN3CCc4ccccc4C3)cc2=O)cc1	.	-15%	3.4%	.
C=CCn1c(SCC(=O)Nc2cccc3ccccc23)nnc1-c1cnccn1	6	-5%	4.0%	-10%
Cc1ccc(F)cc1NC(=O)C1C2CCC(O2)C1C(=O)O (stereo not drawn)	.	-3%	-3.7%	-13%
CC(C)CC(C)N1CCC(n2nccc2NC(=O)CCc2ccccc2)CC1 (stereo not drawn)	.	24%	0.9%	-5%
NS(=O)(=O)c1ccc(NC(=S)Nc2cc(Cl)c(Cl)cc2Cl)cc1	5	20%	0.2%	-5%
CN1CCC(N(C)C(=O)c2sc3cc(F)ccc3c2Cl)CC1	3	10%	-2.3%	-9%
O=C(NCc1ccccn1)Nc1cccc(Cl)c1	-1	4%	0.0%	-46%
c1ccc2sc(NCC3CCCO3)nc2c1 (stereo not drawn)	0	-1%	-3.8%	-38%
Cc1nc2sc(C(=O)c3ccccc3)c(N)c2c2c1CCCC2	-8	?	?	-24%
O=C(O)c1ccc(-c2cccc(Cl)c2)o1	.	7%	1.3%	.
Cc1ccc(C)c(S(=O)(=O)N2CCCCC2CCNC(=O)C(=O)NC2CC2)c1 (stereo not drawn)	.	-1%	-1.2%	.
CC(C)N1CCc2c(sc(NC(=O)c3ccc(C(=O)c4ccccc4)cc3)c2C(N)=O)C1	.	?	?	7%
CCCCNC(=O)CCc1c(C)nc2nc(-c3cc(OC)cc(OC)c3)nn2c1C	8	-2%	-0.7%	1%
COc1ccc(C(=O)NNC(=O)C(C)NC(=O)c2ccccc2NC(=O)c2ccco2)cc1 (stereo not drawn)	-9	-6%	-0.9%	-8%
O=C(Nc1ccc(N2CCN(C(=O)c3ccccc3)CC2)cc1)c1ccc2c(c1)OCO2	2	17%	6.3%	22%
CCOc1ccccc1C(=O)NC1CCN(Cc2nnnn2C2CCCC2)CC1	1	0%	-3.4%	-4%
Cc1cccc(NC(=O)C2CC(=O)N/C(=N/N=C/c3ccco3)S2)c1 (stereo not drawn)	2	-7%	?	-4%
Cc1cc(C)c(NC(=O)C2CC(=O)N(C(C)C)C2)c(C)c1 (stereo not drawn)	.	13%	2.2%	-1%
CCCc1ccc(NC(C)C(=O)Nc2ccc(S(=O)(=O)N3CCOCC3)cc2)cc1 (stereo not drawn)	.	-16%	4.4%	.
CC(C)(C)S(=O)N1Cc2cc(=O)n(Cc3ccccc3)c(CCO)c2[C@@H]1CCO (stereo partly drawn)	.	-17%	0.2%	.
COC(=O)c1c(NC(=S)Nc2ccccc2Cl)sc(C)c1C	7	1%	-9.5%	-3%
CCC(C)N(C(=O)COC(=O)C1C(C(=O)OC)=C(C)NC(C)=C1C(=O)OC)C1CCS(=O)(=O)C1 (stereo not drawn)	-4	-1%	0.2%	1%
NC(=O)CSc1nc2ccccc2c(=O)n1Cc1ccco1	-9	-5%	-1.0%	-2%
COc1ccc(OCC(=O)NS(=O)(=O)c2ccc(Cl)cc2)cc1	.	24%	-2.2%	-2%
CC1=C(C(=O)OCC(C)C)C23C(=O)c4ccccc4C2(O1)OC(N)=C3C#N (stereo not drawn)	2	-3%	-2.8%	-23%
COc1ccc(CN2CCNC(=O)C2CC(=O)NCCc2nc(C)c3c(n2)CCC3)cc1C (stereo not drawn)	.	-21%	-1.2%	-2%
Cn1c(=S)c2[nH]c(SCC3CCCO3)nc2n(C)c1=O (stereo not drawn)	.	1%	-0.3%	.
Cc1cccc(C)c1OCc1cc(C(=O)NCC2COCCO2)no1 (stereo not drawn)	.	-2%	-1.5%	-6%
COc1ccc(NC(=O)C2CCCN2S(=O)(=O)c2cccc3nsnc23)c(OC)c1 (stereo not drawn)	.	0%	1.9%	-2%
Cc1ccc(C(=O)NCc2ccccn2)cc1S(=O)(=O)N1CCOCC1	.	9%	2.9%	.

Not all compounds are listed (hit frequency here may not be typical).
